Menin MLL FP FL: displaces fluorescein MLL peptide from human menin; Fluorescence polarization, fluorescein-MLL peptide displacement from menin; FP activity change, % at 61.4 µM; AID 1766; 290,000 tested, under 10 active; inconclusive = falling polarisation curve, or a change in total fluorescence; inactive = total fluorescence flat and polarisation flat or rising; no compound was filed as active; the % refers to the polarisation; negative = inhibition;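 note: % of control where 0% means no effect; inhibitors lower the polarisation; unlabelled MLL peptide was the positive control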
D2 potentiator: potentiates the human D2 dopamine receptor allosterically. DiscoveRx D2 beta-arrestin cells, luminescence, 90 min; 100% = 57 uM dopamine signal. 0.23% of 360,000 active. AID 624464. potentiation, % (concentration not given with the values). P14416; active = potentiation of 50% or more; inconclusive = 30% to 50%; inactive = 30% or less;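 note: compound concentration not given in the record; tested on top of an EC20 dose of dopamine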
Target sequence (P14416 whole entry, looked up): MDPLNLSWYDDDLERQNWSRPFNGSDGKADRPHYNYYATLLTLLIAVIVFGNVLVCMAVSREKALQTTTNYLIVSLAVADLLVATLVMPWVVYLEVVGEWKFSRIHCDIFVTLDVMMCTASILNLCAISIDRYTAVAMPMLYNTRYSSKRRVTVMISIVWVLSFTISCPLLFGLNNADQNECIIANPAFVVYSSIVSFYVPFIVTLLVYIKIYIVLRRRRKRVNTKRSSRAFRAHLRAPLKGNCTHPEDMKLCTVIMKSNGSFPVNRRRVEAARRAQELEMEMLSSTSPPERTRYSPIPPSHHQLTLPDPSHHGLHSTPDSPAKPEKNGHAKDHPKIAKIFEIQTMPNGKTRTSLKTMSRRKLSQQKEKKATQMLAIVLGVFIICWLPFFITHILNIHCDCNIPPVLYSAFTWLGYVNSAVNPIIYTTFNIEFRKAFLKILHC
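D2 cells co-treated with compound plus 50 nM dopamine (EC20) for 90 min at 37 deg C to detect potentiation. Beta-arrestin recruitment was read as enzyme-fragment luminescence after 1 h at ambient temperature. Full response was set by 57 uM dopamine.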
gsp agonist: activates gsp, the McCune-Albright syndrome mutation | gsp mutant cells, cAMP HTRF, 30 min; control for the full effect not named in the record | Potency, µM (top dose mostly 76.9 µM), for the others: at the top dose activation (cAMP increase), actives largely listed as activators | 0.13% of 340,000 active | AID 624287; active = well fitted activation curve with a large enough effect; inconclusive = small, poorly fitted or top-dose-only effect, or another doubt; inactive = no such curve, though single readings can be large or run the other way; cell line not stated here;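 note: phosphodiesterase inhibitor Ro 20-1724 added with compounds to block cAMP breakdown; potency is the fitted concentration of half-maximal effect; nearly all actives have a fitted effect of over 60% in size; about a fifth of the inactives were tested at one dose only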
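Cells in DMEM/10% FBS with G418 were pretreated with compounds in DMSO plus […] (300 uM stock) for 30 min at 37C. cAMP was measured by HTRF (cAMP-d2 plus anti-cAMP antibody-K) after 30 min at room temperature.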
Sfp PPTase inh: inhibitors of Bacillus subtilis Sfp phosphopantetheinyl transferase. Q9F4F7. Biochemical Sfp PPTase activity, qHTS. Potency, µM, for inactives: max response, negative = inhibition, actives largely listed as inhibitors. 3.5% of 310,000 active; active = well fitted inhibition curve with a large enough effect; inconclusive = small, poorly fitted or top-dose-only effect, or another doubt; inactive = no such curve, though single readings can be large or run the other way;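 note: the enzyme is Sfp with the accession as filed and its product quenches rhodamine fluorescence; potency is the fitted concentration of half-maximal effect; 0% = enzyme reaction without inhibitor and -100% = no enzyme wells; top concentration of the series not given in the record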
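Sfp 15 nM + cpd, 15 min RT; start w/ rhodamine-CoA 5 uM, BHQ-2-YbbR 12.5 uM (final); 50 mM Hepes pH 7.6, 10 mM MgCl2, 0.01% NP-40, 0.01% BSA; read 525/598 nm at 0 and 30 min.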
ClpP mod: qHTS Assay for Activators of ClpP. purified B. subtilis ClpP, FRET peptide cleavage, 20 min. Potency, µM (highest dose often 57.5 µM), for the others: top-dose activity change, negative = active. 1.9% of 340,000 active. AID 651965, 2013; active = well fitted falling curve with a large enough effect; inconclusive = small, poorly fitted or top-dose-only effect; inactive = no such curve, though single readings can be large or run the other way; note: potency is the fitted concentration of half-maximal effect; the source files actives as falling curves though it sought activators and does not explain the sign; nearly all actives have a fitted effect of over 65% in size; many hits overshoot -100%
Target sequence (P80244 whole entry, looked up): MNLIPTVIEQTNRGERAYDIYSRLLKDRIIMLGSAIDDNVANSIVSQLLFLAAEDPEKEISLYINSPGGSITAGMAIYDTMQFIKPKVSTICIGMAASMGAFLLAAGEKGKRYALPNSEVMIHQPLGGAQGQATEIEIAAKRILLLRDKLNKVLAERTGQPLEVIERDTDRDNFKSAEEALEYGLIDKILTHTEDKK
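Purified B. subtilis ClpP, 10 microg/mL final in Tris/HCl pH8 with KCl, BSA, glycerol and Tween-20, cleaved an Abz/nitrotyrosine-quenched decapeptide. Fluorescence (ex 320, em 430) was read at 0 and 20 min at room temperature. Delta was normalized to 5.8 microM ADEP and DMSO/no-enzyme controls.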
gsp antagonist: antagonists of gsp mutant (McCune-Albright syndrome); gsp-mutant cells, cAMP HTRF, 30 min; control for the full effect not named in the record; Potency, µM (doses to about 76.9 µM), for inactives: at the top dose activity change, negative = inhibition, usual class: inhibitors; AID 624288; 0.4% of 340,000 active; active = falling curve of any shape with a large fitted effect; inconclusive = falling curve, mostly with a smaller effect; inactive = flat or rising curve; cell line not stated here;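 note: intracellular cAMP measured with PDE inhibitor Ro 20-1724 present during compound exposure; potency is the fitted concentration of half-maximal effect; % is set by controls: 0 for no effect and ±100 for the full control effect; nearly all actives have a fitted effect of over 65% in size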
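Cells in G418 medium, seeded 16-24 h, 37C; buffer exchange to DPBS + 1 mM CaCl2, 0.5 mM MgCl2, 0.05% BSA; cpds in DMSO + […] (300 uM stock), 30 min 37C; HTRF cAMP detection.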
TRPV1 potentiator: potentiators of human vanilloid receptor 1 (TRPV1) | TRPV1-expressing cells, Fluo-8 calcium influx, capsaicin EC20 potentiation; host cell line not named in the record; control for the full effect not named in the record | Q8NER1 | 0.02% of 320,000 active | potentiation, % at 8.33 µM | AID 540277; active means potentiation above 80%; inconclusive means 30% to 80%; inactive means below 30%; note: 0% is about no effect
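TRPV1-expressing cells were cultured overnight at 35.5C and loaded with Fluo-8 calcium dye for 40 to 90 min at room temperature. After a 10 s baseline, compound was added and calcium influx was read kinetically for 3 min (ex 480/em 520 nm).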
* marks the source's active call; other numbers are inactive results; ? = inconclusive; . = not tested or not shown; [ ] = dose if it differs, or a comment. Rows were taken by chance; overall some 5.1% were active at least once.

SMILES | Sfp PPTase inh | TRPV1 potentiator | ClpP mod | D2 potentiator | gsp antagonist | gsp agonist | Menin MLL FP FL
COc1ccc(CN(C)CC(=O)Nc2ccc(Cl)cc2F)c(OC)c1 | ? | -11 | -0.1% | -16 | 1% | 12% | 6.3
O=C(Nc1ccccc1)NC1(C(=O)N2CCC(O)CC2)CCCCC1 | -1% | 10 | . | -3 | 0% | ? | 0.5
O=C(O)CC(NC(=O)c1cccc([N+](=O)[O-])c1)c1ccc2c(c1)OCO2 (stereo unspecified) | 8% | -1 | . | 2 | 1% | -11%[15.4 µM] | -8.9
COc1ccccc1-n1c(=O)c2c3c(sc2n2c(=S)[nH]nc12)CCC3 | -13% | 2 | . | -4 | -17% | -12%[15.4 µM] | 0.8
O=[N+]([O-])c1cc(S(=O)(=O)CCCN2CCOCC2)ccc1F | 6% | -4 | 2.9% | -7 | 3% | -3% | 2.3
O=C(c1cnc(Cl)c(Cl)c1)N1CCN(S(=O)(=O)c2ccc(F)cc2)CC1 | -6% | -5 | . | -3 | -6% | -18%[15.4 µM] | .
O=c1[nH]ncc(NCc2ccc(Cl)cc2)c1Cl | 25% | 9 | . | -2 | 16% | ? | -1.9
COc1ccc(NC(=S)NC(C)Cc2cccs2)cc1 (stereo unspecified) | -7% | -5 | 2.4% | -1 | 3% | -14% | 2.9
CN(CCOc1ccccc1)Cc1nc2cc(Cl)ccc2c(=O)[nH]1 | 3% | 5 | . | -7 | 13% | -4%[15.4 µM] | 0.8
COc1ccc(C(=O)Nc2nc(C)cc(C)n2)cc1[N+](=O)[O-] | 7% | 1 | -0.4% | 21 | 4% | 15% | 2.0
Cn1c(SCC(=O)N2CCOCC2)nnc1-c1ccc2ncccc2c1 | 11% | -1 | . | -9 | 6% | 28% | 7.2
CC1Cc2cc(C3(O)C(=O)c4ccccc4C3=O)ccc2N1 (stereo unspecified) | -5% | 2 | 1.5% | 1 | -3% | 19% | -0.1
CCNNC(=O)C(O)(Cc1ccccc1)Cc1ccccc1 | 13% | -7 | . | -2 | 10% | 23% | -0.1
Cc1cc(NC(=O)c2cccc(Br)c2)no1 | . | . | . | -16 | 5% | 27%[15.4 µM] | .
c1ccc(-c2nc(NCc3ccco3)c3oc4ccccc4c3n2)cc1 | ? | 4 | -18% | -7 | -10% | -11% | -0.7
CCN1CCCC1CNC(=O)c1ccc(N2CCCC2=O)cc1 (stereo unspecified) | 23% | -2 | -5.9% | -14 | 8% | 1% | 0.1
COC(=O)c1[nH]c2ccccc2c1NC(=O)CN1CCN(C/C=C/c2ccccc2)CC1 | 7% | -6 | 22µM* | -40 | 10% | -65%[inhibitor] | -2.4
COc1ccc(-n2nc3cc(C)c(NC(=O)C(C)C)cc3n2)cc1 | -1% | 22 | . | . | . | . | 1.3
Cc1ccc(NC(=O)c2c(C)nc3ccccn23)cc1C | -15% | -42 | . | -2 | -4% | -4% | 3.2
CC(C)C(NC(=O)c1ccc(C(C)(C)C)cc1)C(=O)NC1=NCCS1 (stereo unspecified) | 12% | 3 | 2.9% | -14 | 8% | -31%[inhibitor] | 0.3
C[C@H](CO)N1C[C@H](C)[C@@H](CN(C)C(=O)Nc2ccccc2)Oc2ccc(NS(=O)(=O)c3ccccc3)cc2C1=O | . | . | -0.3% | -10 | 0% | ? | .
O=C(Nc1ccc(F)c(F)c1)C1CCCN1S(=O)(=O)c1ccc(F)cc1 (stereo unspecified) | 5% | -7 | 1.6% | -17 | -10% | -11% | .
CCCCNC(=O)C(=O)N/N=C/c1cccc(Br)c1 | 12% | 3 | -0.9% | 9 | 7% | -42%[inhibitor] | 2.7
S=C(NCCc1ccccc1)N1CCn2cccc2C1c1cccnc1 (stereo unspecified) | -5% | 0 | . | -19 | -6% | 9%[15.4 µM] | 0.1
Cc1ccc(C2CC(=O)c3cnc(N4CCc5ccccc5C4)nc3C2)cc1 (stereo unspecified) | -6% | 2 | -9.4% | -6 | 17% | 18% | 3.5
CC1CN(c2cc3nccnc3cc2F)CC(C)O1 (stereo unspecified) | 12% | 10 | -2.9% | -4 | 1% | -6% | 5.5
COc1ccc(S(=O)(=O)Oc2cc(C(=S)N3CCOCC3)ccc2OC)cc1 | -4% | 12 | -0.9% | -11 | -10% | 10% | 0.1
COc1ccc2c(COC(=O)[C@H](C)NS(=O)(=O)c3ccccc3F)cc(=O)oc2c1 | . | . | -2.7% | 7 | 7% | -2%[15.4 µM] | .
O=C(O)CSc1cnc2ccccc2n1 | 10% | 0 | -2.6% | -10 | 7% | 14% | -1.0
CC1CCCCC1NC(=O)CSc1ccsc1[N+](=O)[O-] (stereo unspecified) | 8% | -2 | 6.2% | -17 | -4% | 27% | 1.6
COc1ccc(CCNC(=O)C(C(=O)c2ccccc2)n2cc(Cl)ccc2=O)cc1OC (stereo unspecified) | 13% | 3 | 1.2% | -11 | -3% | -8% | -0.1
CC(C)CN1CCNC(=O)C1CC(=O)NCCCN1CCCc2ccccc21 (stereo unspecified) | 1% | 7 | -5.7% | -9 | 4% | 24% | -16
CCCCOC(=O)CCCc1ccc([N+](=O)[O-])cc1[N+](=O)[O-] | -1% | 16 | -0.1% | -1 | -9% | -84%[inhibitor] | 6.3
COc1ccc(C(=O)COC(=O)CCNS(=O)(=O)c2ccc(NC(C)=O)cc2)c(OC)c1 | . | 7 | -4.3% | 16 | -1% | -9% | .
Cc1nc2c3ccccc3nc(NNC(=O)CCC(=O)N3CCC(C)CC3)n2n1 | 6% | -7 | 0.3% | -13 | 7% | ? | .
CS(=O)(=O)N(CC(=O)N1CCCC1)c1ccccc1Br | 18% | 0 | . | -3 | 4% | -58%[inhibitor] | 2.8
COC(=O)c1[nH]c2ccc(C)cc2c1NC(=O)CN1CCCc2ccccc21 | 7% | -8 | -13% | -20 | 2% | -15% | 1.0
Cc1ccc(OCC(=O)N/N=C/c2ccccc2)c([N+](=O)[O-])c1 | 8% | 4 | . | -11 | . | -5%[15.4 µM] | -0.1
COC(=O)c1cc(-c2ccc(Br)cc2)c2c(=O)n(C)c(=O)n(C)c2n1 | 7% | 9 | 4.1% | 4 | -1% | -4% | -1.6
COc1ccc(-c2nc(CS(=O)CC(=O)NCc3ccco3)c(C)o2)cc1 (stereo unspecified) | -14% | . | 3.8% | -2 | -2% | -3% | -1.8
C[C@H]1CN([C@@H](C)CO)C(=O)CCCn2cc(nn2)CO[C@@H]1CN(C)S(=O)(=O)c1ccc(Oc2ccccc2)nc1 | . | . | -0.8% | -9 | . | -21% | .
CCC(C)NC(=O)C1(O)c2ccccc2NC(=O)N1c1ccc(C)c(C)c1 (stereo unspecified) | 7% | -2 | -6.1% | -5 | 3% | 14% | 8.0
COC(=O)C1=C(CS(=O)(=O)c2cc(Cl)ccc2OC)NC(=O)NC1c1ccc(O)c(OC)c1 (stereo unspecified) | 2% | 0 | -1.4% | -2 | 11% | -7% | 3.0
CC(=O)Nc1ccc(S(=O)(=O)Nc2ccccc2N2CCOCC2)cc1Cl | 16% | 6 | -2.3% | -18 | 3% | 26% | .
CC(C)N=Cc1c(O)[nH]c2ccccc12 | 25% | -17 | -0.4% | 3 | -22% | -15% | 1.0
Cc1cc(=O)[nH]c(SCC(=O)Nc2ccc(Br)cc2)c1C#N | 19% | -27 | 0.3% | -6 | -24% | -1% | 0.9
O=[N+]([O-])c1ccc2c(c1)c1ccccc1n2CCO | 10% | 6 | . | -1 | -10% | 2%[15.4 µM] | -0.2
CC(C)CCN(C(=O)CNC(=O)c1cccs1)C(C(=O)NC1CCCCC1)c1cccnc1 (stereo unspecified) | 11% | -1 | . | -2 | -6% | 3%[15.4 µM] | 0.6
CN(C)S(=O)(=O)c1ccc(N2CCCC2)c(C(=O)N2CCN(S(=O)(=O)c3ccc(F)c(F)c3)CC2)c1 | . | . | -0.8% | 0 | -17% | 22% | .
CCOCCCNC(=S)Nc1cc(OCC)c(NC(=O)c2ccco2)cc1OCC | 3% | -8 | . | 4 | . | 7%[15.4 µM] | 3.0

Continuation.
SMILES | Sfp PPTase inh | TRPV1 potentiator | ClpP mod | D2 potentiator | gsp antagonist | gsp agonist | Menin MLL FP FL
O=C(O)/C(=C\c1cccc([N+](=O)[O-])c1)c1ccc(S(=O)(=O)N2CCCCC2)s1 | -19% | 1 | -0.8% | 5 | -7% | 23% | -0.6
CC(/C=C1\SC(=S)N(C(C(=O)O)C(C)C)C1=O)=C\c1ccccc1 (stereo unspecified) | ? | 7 | . | -1 | -14% | -10% | 14
COc1ccc(NS(=O)(=O)c2ccc(NC(C)=O)cc2)nn1 | . | . | . | 0 | 6% | -12%[15.4 µM] | .
COc1cc(Cn2cnnn2)ccc1O | 6% | -1 | -0.6% | -14 | 22% | -3% | 0.9

Quoted from the listing, 5 compounds:
SMILES | Sfp PPTase inh | TRPV1 potentiator | ClpP mod | D2 potentiator | gsp antagonist | gsp agonist | Menin MLL FP FL
CCOCCCNC(=S)Nc1cc(OCC)c(NC(=O)c2ccco2)cc1OCC | 3% | -8 | . | 4 | . | 7%[15.4 µM] | 3.0
O=C(O)/C(=C\c1cccc([N+](=O)[O-])c1)c1ccc(S(=O)(=O)N2CCCCC2)s1 | -19% | 1 | -0.8% | 5 | -7% | 23% | -0.6
CC(/C=C1\SC(=S)N(C(C(=O)O)C(C)C)C1=O)=C\c1ccccc1 (stereo unspecified) | ? | 7 | . | -1 | -14% | -10% | 14
COc1ccc(NS(=O)(=O)c2ccc(NC(C)=O)cc2)nn1 | . | . | . | 0 | 6% | -12%[15.4 µM] | .
COc1cc(Cn2cnnn2)ccc1O | 6% | -1 | -0.6% | -14 | 22% | -3% | 0.9
